Screens: PubChem BioAssay, National Center for Advancing Translational Sciences (NCATS)
TRPML1 agonist: human mucolipin-1 channel agonism; TRPML1-expressing cells, Ca2+ dye fluorescence, FDSS; host cell line not named in the record; reference of the full effect not given here; activation, % (concentration not given with the values); hit rate 0.12% among 410,000; AID 624414; in the data active = activation above about 50%; inconclusive = about 30% to 50%; inactive = below about 30%; further: 0% is about no effect; the text of the record puts the active cut at 80%
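Tet-induced TRPML1-DL cells, 1,500 per well, cultured overnight, were loaded with a no-wash Ca2+ dye for 45–90 min. Calcium fluorescence was recorded on the FDSS for 110 s after compound addition, before the EC80 agonist (4 uM 54-4) was added.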
PINK1 expr mod: PINK1 expression modulation | PINK1 immunofluorescence, high-content cytometry, 24 h | Potency, µM (doses to about 76.6 µM), without a hit: at the highest dose activation (PINK1 increase), hits mostly activators | hit rate 0.2% among 410,000 | AID 624263; active = well fitted activation curve with a large enough effect; inconclusive = small, poorly fitted or top-dose-only effect; inactive = flat fitted curve, though single readings scatter; cell line not stated here;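 further: potency means the concentration at half of the fitted maximal effect; % of control where 0% means no effect; nearly all actives have a fitted effect of over 65% in size; a mitochondrial uncoupler was the plate control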
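Decision-based qHTS: stable cells, 24 h exposure to five compound concentrations, CCCP as control. Fixed cells stained for PINK1 plus nuclear, mitochondrial and cell markers, cytometer read.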
Six1-Eya2 inh: Six1/Eya2 interaction inhibition. Q15475+O00167. AID 651725. activity change, % (concentration not given with the values). AlphaScreen GST-Six1/His-Eya2 binding, biochemical; active compounds read low; control for the full effect not named in the record. hit rate 0.56% among 360,000; in the data active = activity change below about -65%; inconclusive = about -30% to -65%; inactive = above about -30%; further: on the % scale 0 is the no-effect control and ±100 the full control effect
Target sequence (O00167 whole entry, looked up): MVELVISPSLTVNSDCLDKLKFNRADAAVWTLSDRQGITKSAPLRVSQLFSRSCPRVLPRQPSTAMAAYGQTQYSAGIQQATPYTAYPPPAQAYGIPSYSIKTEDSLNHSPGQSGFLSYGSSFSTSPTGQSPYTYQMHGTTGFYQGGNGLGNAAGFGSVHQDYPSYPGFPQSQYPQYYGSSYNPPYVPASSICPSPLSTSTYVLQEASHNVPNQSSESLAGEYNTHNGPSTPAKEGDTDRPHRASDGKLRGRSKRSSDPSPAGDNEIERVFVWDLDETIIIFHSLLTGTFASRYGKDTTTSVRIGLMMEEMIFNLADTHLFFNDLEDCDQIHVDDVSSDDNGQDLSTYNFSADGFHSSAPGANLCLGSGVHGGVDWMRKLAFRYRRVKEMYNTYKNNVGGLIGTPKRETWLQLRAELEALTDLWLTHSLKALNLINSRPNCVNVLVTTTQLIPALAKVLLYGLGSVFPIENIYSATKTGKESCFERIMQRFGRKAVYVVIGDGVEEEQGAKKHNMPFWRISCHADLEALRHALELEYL
Target sequence (Q15475 whole entry, looked up): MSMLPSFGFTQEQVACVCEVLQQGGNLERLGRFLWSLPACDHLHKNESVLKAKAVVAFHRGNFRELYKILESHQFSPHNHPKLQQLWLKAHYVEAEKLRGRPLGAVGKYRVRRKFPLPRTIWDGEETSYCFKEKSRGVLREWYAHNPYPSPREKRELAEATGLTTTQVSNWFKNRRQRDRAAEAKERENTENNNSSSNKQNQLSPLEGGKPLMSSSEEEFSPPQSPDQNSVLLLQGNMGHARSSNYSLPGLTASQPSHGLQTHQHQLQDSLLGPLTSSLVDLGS
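GST-Six1 + His-Eya2 (5X stock: 250/500 nM); Tris pH 8.0, 300 mM NaCl, 0.05% BSA, 0.02% Tween 20; GSH donor/Ni acceptor beads; 1 h 37 °C dark; AlphaScreen readout.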
CtBP-E1A blk: inhibitors of CtBP/E1A interaction. AlphaScreen GST-E1A/His-CtBP binding, 1536-well; active compounds read low; control for the full effect not named in the record. activity change, % (test concentration not listed). hit rate 0.49% among 340,000; in the data active means activity change below about -65%; inconclusive means about -30% to -65%; inactive means above about -30%; further: on the % scale 0 is the no-effect control and ±100 the full control effect
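Protein mix (5X: 125 nM each GST-E1A, His-CtBP) was incubated with pinned compound 2 h at 37 deg C in dark, in 50 mM Tris pH 8.0 buffer with 300 mM NaCl. Glutathione donor and nickel acceptor beads followed; AlphaScreen signal read after 1 h.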
D2 agonist: agonists of human D2 dopamine receptor (beta-arrestin) | hit rate 0.084% among 360,000 | activation, % (no concentration beside the values) | DiscoveRx PathHunter D2 beta-arrestin, luminescence, 90 min; 100% = 57 uM dopamine signal | P14416; in the data active = activation above about 40%; inconclusive = about 15% to 40%; inactive = below about 15%; further: compound concentration not given in the record; the text of the record calls up to 30% inactive
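DiscoveRx PathHunter D2 beta-arrestin cells (2,100/well) attached overnight, then compound-stimulated 90 min at 37 C in HBSS/10 mM HEPES/0.1% Tween-20 buffer; beta-galactosidase complementation read by luminescence after 1 h at ambient temperature. Dopamine 57 uM final (EC100) as control.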
TRPML1 inh: blocks the human TRPML1 channel | TRPML1-inducible cells, Ca2+ dye fluorescence, FDSS; active compounds read low; inhibition of EC80 agonist-evoked calcium signal | activity change, negative = inhibition, % (test concentration not listed) | hit rate 0.02% among 390,000 | AID 624415; in the data active means activity change below about -50%; inconclusive means about -30% to -50%; inactive means above about -30%;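 further: stimulus is agonist 54-4 at its EC80 concentration; on the % scale 0 is the no-effect control and ±100 the full control effect; compound concentration not given in the record; the text of the record puts the active cut at -80%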
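Tet-induced TRPML1-DL cells loaded with Ca8 no-wash calcium dye were read kinetically on FDSS. Compound addition was followed by EC80 agonist 54-4 (4 uM final); inhibition was read over 110 s.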
Active calls of the source: *; ? = inconclusive; . = no result given; [ ] = another dose, or the depositor's remark.

smiles | Six1-Eya2 inh | PINK1 expr mod | CtBP-E1A blk | TRPML1 agonist | D2 agonist | TRPML1 inh
CCSc1nnc(CNC(=O)C23CC4CC(CC(C4)C2)C3)n1C1CCCCC1 | 3 | 2.2% | -17 | -0.5 | -4.3 | 14
O=C(Cn1cnc2c(nnn2Cc2ccc(F)cc2)c1=O)NCc1ccco1 | -9 | . | -5 | -0.1 | -4.2 | -4
COc1ccc(C2CC(=O)C3=C(C2)Nc2ccccc2N(C(C)=O)C3c2ccco2)cc1 (configuration not stated) | -1 | 8.7%[38.3 µM] | 0 | 3.4 | -0.9 | -12
O=C(COC(=O)c1cc(-c2cccs2)nc2ccccc12)NC1CCS(=O)(=O)C1 (configuration not stated) | -21 | -0.2% | . | 2.9 | 3.2 | 22
O=C(O)Cc1ccc(NC(=O)c2ccc(Cl)c(Cl)c2)cc1 | 3 | 1.4% | 3 | 1.0 | -2.6 | 27
Cc1c(-c2nc(-c3ccc4c(c3)OCO4)no2)nnn1-c1ccc(C(C)C)cc1 | . | 1.6% | . | -0.5 | . | 3
Cc1nc(NC(=O)C2CCCCC2C(=O)O)sc1C (configuration not stated) | 4 | 1.1% | 6 | 0.1 | -4.8 | -20
Oc1c(/C=N/c2ccccn2)sc2ccccc12 | 3 | -0.8% | -2 | 1.6 | -1.0 | 23
CC1CN=C(NS(=O)(=O)c2ccccc2)N1 (configuration not stated) | 15 | 1.3% | 0 | -0.3 | -2.2 | -3
O=C(CCS(=O)(=O)c1ccc(Cl)cc1)Nc1ccc(F)cc1 | 7 | 0.9% | 10 | -0.3 | -2.3 | 1
COc1ccc(-c2[nH]c(-c3ccc(O)cc3)nc2-c2ccccc2)cc1 | . | 0.1% | . | 0.7 | . | 18
CC(CCc1ccccc1)NC(=O)CNC(=S)N(Cc1cccs1)C1CCCC1 (configuration not stated) | 8 | 5.6% | 5 | 3.0 | -3.0 | 27
COc1ccc(C(=O)Nc2nc(-c3cccs3)cs2)cc1 | -6 | 5.8% | 0 | -0.9 | 0.0 | 19
CC1=CCC(COC(=O)Nc2ccccc2)CC1 (configuration not stated) | 21 | 3.8% | 25 | 0.0 | -2.8 | -5
C=CCN(CC=C)Cc1cc(=O)oc2cc(C)c(Cl)cc12 | 12 | 9.3% | 20 | -0.6 | -3.6 | .
CN1CCN(c2ccc(NC(=O)c3ccc4c(c3)OCCO4)cc2Cl)CC1 | -3 | 0.7% | -21 | -0.2 | -2.0 | -5
CCN(CC)c1nc2c(c(=O)[nH]c(=O)n2C)n1CCOc1ccccc1 | 2 | 0.0% | -4 | -0.6 | 6.7 | -1
CCc1nc(NC(=O)Cc2csc(C)n2)sc1C(=O)OC | 2 | 1.0% | 1 | -0.9 | -3.7 | 36
COc1ccc(OC)c2[nH]c(=O)c(CCNS(=O)(=O)c3ccc(Cl)cc3)cc12 | -1 | -0.6% | 1 | -0.7 | -1.4 | 11
CCCc1nc2c(C)ccc(C)c2c(N)c1CC | 2 | 1.9%[38.3 µM] | 0 | 3.2 | 1.3 | 10
CCCCCCOc1ccc(/C(C)=N/NC2=NCCN2)cc1[N+](=O)[O-] | -15 | -1.1% | . | -0.2 | -8.7 | -5
O=C1/C(=C/c2cccnc2)N=C2CCCCCN12 | 15 | -0.8% | . | 0.4 | 3.8 | -7
CCC(=O)OCCCCCCOc1ccc(C(=O)O)cc1 | 3 | 0.7% | 2 | -0.2 | 0.3 | 12
N#Cc1ccc(COc2cccc3cccnc23)cc1 | -2 | -0.7% | -16 | -0.4 | 1.3 | -15
CCOC(=O)c1ccccc1NS(=O)(=O)c1c(-c2ccc(C)cc2)csc1C(=O)OC | . | 3.0% | . | 1.5 | . | -3
CCOc1ccc(NCc2nc3ccccc3n2CCOc2ccccc2)cc1 | ? | ? | -4 | 3.3 | -3.2 | -6
Cc1ccc(CNc2cc(C)nc3nc(-c4cccc(C)c4)nn23)cc1 | . | ? | . | 5.0 | . | -3
COc1cc2c(cc1NC(=O)CN1CCN(S(=O)(=O)c3ccc(F)cc3)CC1)oc1ccccc12 | -1 | -2.0% | 0 | 0.7 | -2.3 | 8
CCN(CC)C(=O)CN1C(=O)C2(OCC(C)(C)CO2)c2ccccc21 | 0 | 0.7% | 5 | -0.6 | -3.9 | 1
O=C(Nc1nnc(-c2ccccc2)o1)c1nc2ccccc2s1 | -8 | 17% | -12 | ? | -12 | 29
CCS(=O)(=O)N1CCN(c2cc3c(cc2[N+](=O)[O-])n(C)c(=O)n3C)CC1 | -2 | 0.2% | -10 | -0.1 | -1.6 | 2
Cc1cc(=O)n(CC(=O)NC(C)c2ccccc2)c2c1c(C)nn2C (configuration not stated) | . | 0.2% | . | -1.1 | . | 14
CC(C)(C)c1ccc(C2=NC(=O)C(CC(=O)O)S2)cc1 (configuration not stated) | 22 | -2.5% | -14 | 0.8 | -5.7 | 11
O=C(CN1C(=O)C2CCc3[nH]c4ccccc4c3C2C1=O)N1CCCC1 (configuration not stated) | 9 | 3.6% | -1 | -0.5 | -2.0 | 1
CC(NCC(O)c1ccc([N+](=O)[O-])cc1)C12CC3CC(CC(C3)C1)C2 (configuration not stated) | -12 | ? | -10 | 1.5 | -6.9 | -9
O=C(CN1C2=NCCN2c2ccccc21)N1CCOCC1 | 8 | 2.5% | 5 | -0.6 | -0.6 | -9
Cc1noc(C)c1C(=O)Nc1ccc(C#N)cc1 | 7 | 0.6% | 2 | 0.4 | 0.4 | 0
CCC(CC)C(=O)N(C)c1c(C)nc2c(OCC=C(C)C)cccn12 | 0 | 6.2% | 2 | -0.8 | -2.7 | 30
COCCNc1ncnc2c1nc1n2CCCC1 | 5 | 0.3% | -1 | 1.1 | -4.2 | 7
O=C(CCC(=O)N1CC2CCCN2c2ccccc21)NCc1ccc(Cl)cc1 (configuration not stated) | . | 0.4% | . | 0.1 | . | 2

Structural class, those above with a nitro group on carbon
smiles | Six1-Eya2 inh | PINK1 expr mod | CtBP-E1A blk | TRPML1 agonist | D2 agonist | TRPML1 inh
CCCCCCOc1ccc(/C(C)=N/NC2=NCCN2)cc1[N+](=O)[O-] | -15 | -1.1% | . | -0.2 | -8.7 | -5
CCS(=O)(=O)N1CCN(c2cc3c(cc2[N+](=O)[O-])n(C)c(=O)n3C)CC1 | -2 | 0.2% | -10 | -0.1 | -1.6 | 2
CC(NCC(O)c1ccc([N+](=O)[O-])cc1)C12CC3CC(CC(C3)C1)C2 (configuration not stated) | -12 | ? | -10 | 1.5 | -6.9 | -9

(cont.)
smiles | Six1-Eya2 inh | PINK1 expr mod | CtBP-E1A blk | TRPML1 agonist | D2 agonist | TRPML1 inh
COc1cc(C=O)ccc1OCCOc1ccccc1[N+](=O)[O-] | 4 | 1.4% | -5 | 1.9 | 0.6 | 8
S=c1[nH]nc(-c2ccco2)n1C1CCCCC1 | 4 | 0.9% | 11 | -0.3 | 2.2 | -15
COc1cccc(-n2c(=O)c3c(C)c(C)sc3n(CC(=O)NCCc3ccc(OC)c(OC)c3)c2=O)c1 | . | 1.9% | . | 3.5 | . | -8
CCNC(=O)CC1SC(=Nc2ccccc2C)N(C)C1=O (configuration not stated) | 4 | -2.3% | 5 | 0.6 | -4.3 | 5
CCOc1cc(N2CCOCC2)c(OCC)cc1NC(=O)c1nc2nc(C)cc(C)n2n1 | -6 | 2.4% | -2 | 4.9 | -3.2 | 8
CC(=O)Nc1ccc(NC(=O)COc2ccc(Br)cc2C)cc1 | -2 | 5.4% | 6 | -0.6 | -3.3 | -6
CN(C(=O)c1cccc(NC(=O)Cc2cccc(NC(=O)C3CCN(S(=O)(=O)c4cccc([N+](=O)[O-])c4)CC3)c2)c1)C1CC1 | -1 | 3.8% | -4 | -0.9 | 6.3 | 13
Cc1[nH]nc2c1C(c1ccsc1)C1=C(CC(C)(C)CC1=O)N2 (configuration not stated) | -4 | 1.6% | -9 | 0.5 | -3.0 | 17
O=C(NC(=S)N1CCCCC1)c1cccs1 | 8 | -1.4% | -10 | 0.1 | -3.7 | -2
Cc1ccc(CNC(=O)c2ccc(CS(=O)(=O)Cc3ccc(C)cc3)o2)cc1 | . | 0.3% | . | 0.8 | . | -6
O=C(Nc1ccc(C(=O)N2CCOCC2)cc1)Nc1cccc(C(F)(F)F)c1 | 1 | 1.1% | 5 | -0.1 | -2.1 | -2
COc1ccccc1CCNC(=O)c1nccnc1C(=O)O | 5 | 0.2% | 4 | -1.3 | 0.4 | -8
COc1cc(Br)cc(CN2CCN(C=O)CC2)c1O | -3 | 21%[38.3 µM] | 4 | 0.2 | 0.4 | -1
Oc1ccccc1-c1nc2cnccn2c1Nc1ccc(Cl)cc1 | . | 20% | . | -0.1 | . | 60
O=C(NC(=S)N1CCCCC1c1cccnc1)c1ccccc1 (configuration not stated) | -1 | 1.4% | 1 | -0.4 | -0.8 | -5
O=C1NC[C@H](CCCCN2CCN(CC3CCCCC3)C(=O)C2=O)N(CCc2ccccc2)C1=O | 4 | 0.0% | 1 | -0.3 | . | .
CCc1nc2c(OCC=C(C)C)cccn2c1N(C)C(=O)c1ccc(OC)cc1 | 1 | 5.6% | 2 | 0.4 | -4.6 | .
COc1cccc(/C(C)=N/NC(=O)c2ccc(N(C)C)cc2)c1 | 3 | -0.5% | -9 | -0.8 | -5.9 | 2
COCCNC(=S)NNC(=O)c1cccs1 | 6 | -1.3% | 0 | 0.7 | -1.1 | -5
CCCCN(C)S(=O)(=O)c1cc2c3c(c1)CCC(=O)N3CCC2 | 1 | -0.4% | . | 0.2 | -2.0 | 0
CCOc1ccc(NC(=O)CSc2nnnn2-c2ccc(C(N)=O)cc2)cc1 | 0 | 7.3% | 9 | -1.4 | -0.1 | -13
CC(=O)NCCCOc1ccc([N+](=O)[O-])cc1Cl | 7 | -1.7% | . | 1.1 | 0.8 | -11
COC(=O)c1ccccc1NC(=O)Cn1cnc2sc(C)c(S(=O)(=O)N3CCC(C)CC3)c2c1=O | . | -0.2% | . | -0.5 | . | 4
O=C(CSc1nn(-c2ccc(F)cc2)c(=S)s1)NCC1CCCO1 (configuration not stated) | -2 | -0.6% | . | 0.1 | -4.8 | 1
CC(C)NCC(O)COCc1ccc(Cl)cc1 (configuration not stated) | 3 | 3.5%[38.3 µM] | -2 | -0.1 | -2.2 | -7
Cc1nc(NCCC(C)C)c2nnn(Cc3ccccc3)c2n1 | 22 | 8.5% | 5 | 1.5 | 3.1 | 14
CC(C)OCCCNC(=O)Cc1ccc(NC(=O)N2CCCCc3ccccc32)cc1 | . | -0.7% | . | -0.7 | . | -13
CCCCN(C)C(=O)c1nc2ccccn2c1CNC1CCC1 | 19 | 2.4% | 3 | -0.9 | -3.0 | 10
O=C1NCCN(Cc2ccc(-c3ccccc3)cc2)C1CC(=O)N1CCN(CCO)CC1 (configuration not stated) | 3 | 1.4% | 4 | 0.3 | -4.9 | -5
